Screens (PubChem BioAssay)
HSD17B inhib: qHTS Assay for Inhibitors of HSD17B4, hydroxysteroid (17-beta) dehydrogenase 4 | 3-hydroxyacyl-CoA dehydrogenase type-2 (Homo sapiens), Q99714 | AID 893, 2007 | 75,000 tested, 7.6% active | recombinant HSD17B10, NADH fluorescence kinetic; many of its hits are not listed in these tables | Potency, µM (highest dose often 57.1 µM), for inactives: at the highest dose activity change, negative = inhibition, most hits filed as inhibitors; active = well fitted inhibition curve with a large enough effect; inconclusive = small, poorly fitted or top-dose-only effect; inactive = no such curve, though single readings can be large or run the other way;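 note: the protocol describes HADH2 (HSD17B10) and not the HSD17B4 of the title; nearly all actives have a fitted effect of over 70% in size; most hits overshoot -100% by far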
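His-tagged E. coli-expressed HADH2 at 20 nM in 100 mM Tris-HCl pH 9.0 with 0.01 % Tween-20, preincubated 15 min with compound at room temperature. Reaction with 1 mM NAD+ and 90 uM beta-hydroxybutyryl coenzyme A; NADH fluorescence (360/450 nm) read kinetically over 4 min, last minus first point.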
Starred values were filed as active, the others as inactive; ? = inconclusive; [ ] = remark or other dose. % is set by controls: 0 for no effect and ±100 for the full control effect; potency is the fitted concentration of half-maximal effect. Only part of the results is shown; count on the stated rates, not on these rows.

Start of the data: the first 2 compounds (preview)
structure,HSD17B inhib
CCC(C)c1ccc(NC(=O)CC(C)=O)cc1 (stereo not drawn),0%
Cc1cnc2cc(Cl)ccc2c1SCC(=O)O,3%[11.4 µM]

All compounds of this part, from the start:
structure,HSD17B inhib
CCC(C)c1ccc(NC(=O)CC(C)=O)cc1 (stereo not drawn),0%
Cc1cnc2cc(Cl)ccc2c1SCC(=O)O,3%[11.4 µM]
COc1ccccc1NC(=O)Cn1nc(C(F)(F)F)c2c1CCCC2,-2%
CCN1CCN(C(=O)c2ccccc2N(Cc2ccccc2)S(C)(=O)=O)CC1,-6%
CC(C)C(NC(=O)C1CCCCC1)C(=O)N1CCN(c2ccc(F)cc2)CC1 (stereo not drawn),3%
COc1ccccc1NC(=O)c1ccccc1NS(C)(=O)=O,-3%
O=C1c2ccccc2C(Nc2ccc(Cl)cn2)N1c1cccnc1 (stereo not drawn),6%
O=C(O)c1ccccc1C(=O)N1CC=C(c2ccccc2)CC1,-9%
CCCc1cc(=O)oc2cc3occ(C)c3cc12,25µM*
CCCC(C)NC(=O)c1ccc(F)cc1 (stereo not drawn),8%

Reprinted at random: four compounds from above, in no set order.
structure,HSD17B inhib
COc1ccccc1NC(=O)c1ccccc1NS(C)(=O)=O,-3%
CCN1CCN(C(=O)c2ccccc2N(Cc2ccccc2)S(C)(=O)=O)CC1,-6%
CCCC(C)NC(=O)c1ccc(F)cc1 (stereo not drawn),8%
CCCc1cc(=O)oc2cc3occ(C)c3cc12,25µM*

A second format for part of the listing above:
Molecule: CCN1CCN(C(=O)c2ccccc2N(Cc2ccccc2)S(C)(=O)=O)CC1
  HSD17B inhib: -6%
Molecule: CCC(C)c1ccc(NC(=O)CC(C)=O)cc1 (stereo not drawn)
  HSD17B inhib: 0%
Molecule: O=C1c2ccccc2C(Nc2ccc(Cl)cn2)N1c1cccnc1 (stereo not drawn)
  HSD17B inhib: 6%
Molecule: Cc1cnc2cc(Cl)ccc2c1SCC(=O)O
  HSD17B inhib: 3%[11.4 µM]

Other results follow.
structure,HSD17B inhib
COc1ccc(Cc2ccccc2C(=O)O)c2ccccc12,4%[11.4 µM]
CCOC(=O)C1=C(C)OC(N)=C(C#N)C1c1ccsc1 (stereo not drawn),-12%
O=C(Nc1cccc2cccnc12)[C@@H]1[C@@H](C(=O)O)[C@H]2CC[C@@H]1O2,2%[11.4 µM]
CCC(C)(C)n1nnnc1C(c1ccc(C)cc1)N1CCN(Cc2cccnc2)CC1 (stereo not drawn),10%
O=C(O)CCc1nc2ccccc2n(CCc2ccccc2)c1=O,?
Cc1cc(C)n(CCc2nc3c4ccccc4nc(SCc4ccc(C#N)cc4)n3n2)n1,1%
Cc1ccc(C2(C)NC(=O)N(CC(=O)Nc3ccc4c(c3)OCO4)C2=O)cc1 (stereo not drawn),-5%
Cc1ccc(-n2c(SCC(=O)OC(C)C)nnc2-c2ccncc2)cc1,-15%
N#Cc1cc2[nH]c(=O)c(=O)[nH]c2cc1[N+](=O)[O-],-14%
CCOc1ccc(NC(=O)c2nccnc2CO)cc1,3%

More records follow:
structure,HSD17B inhib
CCc1ccccc1N(CC(=O)NCc1ccco1)C(=O)c1snc(C(N)=O)c1N,?
O=C(C1CCCN(S(=O)(=O)c2ccc(F)cc2)C1)N1CCCC1 (stereo not drawn),-2%
O=C(Nc1cnn(Cc2ccc(Cl)cc2)c1)C1CCCC1,13%
CC1=CC(C)=Nc2ccc(C)cc2N1,-16%
CCN1C(=O)/C(=C/N2CCc3ccccc32)SC1=S,2%
Cc1cc(Cl)cc(C)c1OCCCCn1ccnc1,-2%
CC1(C)CC(=O)c2cnc(NC(=O)CSc3nc4ccccc4o3)nc2C1,0%
CCCCn1c(SCN2C(=O)c3ccccc3C2=O)nc2cc(S(N)(=O)=O)ccc21,-23%
O=C(c1cc(-c2cccc(O)c2)on1)N1CCN(C(c2ccccc2)c2ccccc2)CC1,-15%
O=C(O)C1CC(c2cccc(Br)c2)=NO1 (stereo not drawn),15%

Remaining list, next part:
structure,HSD17B inhib
Cc1cccc(OCc2nnc(SCc3nc4ccccc4c(=O)[nH]3)o2)c1,0%
O=C(Cn1nc(-c2ccccc2)ccc1=O)Nc1ccc(N2CCN(C(=O)c3ccccc3)CC2)cc1,2%
COc1cccc(-c2cc(C(F)(F)F)n3nc(N)nc3n2)c1,-2%
Cc1ccccc1-c1nnn(CC(=O)c2ccc(S(=O)(=O)N3CCCC3)cc2)n1,-10%
O=C(c1cc(C(F)(F)F)cc(C(F)(F)F)c1)N1CCC2(CC1)CCN(c1ccccc1)CC2,-7%
O=C(Cn1nnc(-c2ccc(S(=O)(=O)N3CCCC3)cc2)n1)NCC1CCCO1 (stereo not drawn),0%
CCC(=O)Nc1ccc(C(=O)Nc2ccc3c(c2)C(=O)N(CC2CCCO2)C3=O)cc1 (stereo not drawn),32µM*
OC[C@@H]1NC[C@@H](O)[C@@H](O)[C@H]1O,6%
COc1ccccc1S(=O)Cc1ccc(C(=O)NC2CCCC2)o1 (stereo not drawn),-5%
c1ccc2nc(-c3nc4ccccc4o3)ccc2c1,16µM*

(further entries)
structure,HSD17B inhib
COc1ccccc1CCNC(=O)CSc1nc(-c2ccco2)cc(C(F)(F)F)n1,-26%
CCC1(NC(C)=O)CC2CC1CC2NC(C)=O (stereo not drawn),2%
Cc1nnc(N(C)C(=O)Cc2ccc3c(c2)OCO3)s1,-10%
Cn1c(=O)c2c(nc(CN3CCN(C(=O)c4ccco4)CC3)n2Cc2ccc(Cl)cc2)n(C)c1=O,-19%
CN(C)c1nc(N)nc(CSc2ncc(Cl)cc2Cl)n1,-11%
COCCNC(=O)C(c1cccs1)N(C(=O)Cn1nnc2ccccc21)c1ccccc1 (stereo not drawn),2%
COC(=O)C1(C)NC(=O)c2ccccc2N1 (stereo not drawn),32µM*
c1ccc2nc(CC[C@@H]3CCCCN3)ccc2c1,3%[11.4 µM]
COC(=O)C1=C(C(C)=O)C(c2ccc(C)cc2)n2nnnc2N1 (stereo not drawn),0%
Cc1nn(Cc2ccc(Br)cc2)c(C)c1NC(=O)c1nn(C)cc1Cl,4%

(cont.)
structure,HSD17B inhib
c1ccc(-n2nnc3c(N4CCOCC4)ncnc32)cc1,-5%
O=C(COC(=O)c1ccc[nH]c1=O)NC1CCCC1,-6%
CN(C(=O)COc1cc(=O)n(C)c2ccccc12)c1cccc(Cl)c1,-6%
Cn1c(=O)[nH]c(=O)c2c1nc(N1CCOCC1)n2CCN1CCOCC1,6%
CCOc1ccc(NC(=O)C2CC(=O)NC(N3CCc4ccccc43)=N2)cc1 (stereo not drawn),2%
COc1cccc(C(=O)CSc2nnc(CNS(=O)(=O)c3ccc(C)cc3)n2C)c1,?
CCOc1cc(CN2CCN(C(=O)CC(C)C)CC2)ccc1OC,3%
CC(C)CC(=O)Nc1ccc(C(=O)COc2ccc(-c3nnco3)cc2)cc1,0%
c1ccc(CCNc2c3c(nc4ncnn24)CCC3)cc1,-3%
CC(=O)n1c(COS(C)(=O)=O)nc2ccccc21,3%[11.4 µM]

Further records:
structure,HSD17B inhib
O=S(=O)(Nc1ccc2c(c1)OCO2)c1ccc(Br)s1,32µM*
COc1cc(NC(=O)CSc2nnc(C)s2)cc(OC)c1OC,6%
Cc1cc(C)n(C(=O)c2ccc(NC(=O)CC(C)C)cc2)n1,-7%
Cc1ccc(S(=O)(=O)NC(=O)c2cc(C)n(CCCN3CCOCC3)c2C)cc1,4%
COc1cc(-c2nc(S(=O)(=O)c3ccc(Cl)cc3)c(N(C)C)o2)cc(OC)c1OC,-6%
Cc1cc(NC(=O)CSc2ccc3nnc(-c4ccc(Cl)cc4)n3n2)no1,?
COc1ccc(N2CCN(C(=O)CCCn3c(=S)[nH]c4cc5c(cc4c3=O)OCO5)CC2)cc1,-14%
COc1ccc(CCN2C(=O)CC(C(N)=O)SC2=Nc2ccccc2)cc1OC (stereo not drawn),-4%
CCOC(=O)CN(C(=O)CSc1nnc(CNc2ccc(F)cc2)o1)c1ccccc1,-2%
O=C(O)C1CC(=O)N(c2ccc(Br)cc2)C1 (stereo not drawn),10%

(list continues)
structure,HSD17B inhib
COc1ccc(C2C(=O)N(C3CCCCC3)CC(=O)N2CCc2ccccc2)cc1OC (stereo not drawn),3%
COCCn1nnnc1C(c1cccs1)N1CCN(c2ccccc2)CC1 (stereo not drawn),7%
Cc1ccn2cc(CCNC(=O)CC(C)(C)C)nc2c1,32µM*
CC(=O)OC(C(=O)NCS(=O)(=O)c1ccc(C)cc1)c1cccnc1 (stereo not drawn),0%
COc1cccc(-n2ccnc2SCC(=O)Nc2cc(OC)ccc2OC)c1,-8%
CCOc1nc(CC)nc(NC(=O)NS(=O)(=O)c2ccccc2Cl)n1,5%
O=C(Nc1ccc(-c2nc3cccnc3s2)cc1)c1ccc(Br)o1,25µM*
Cc1noc(C)c1COC(=O)CCCOc1ccc(Cl)cc1Cl,-15%
Cc1ccc2cc(CCNC(=O)c3ccc(Br)o3)c(=O)[nH]c2c1,-25%
CCOc1ccccc1NC(=O)CSc1ccccc1,1%

Other structures.
structure,HSD17B inhib
c1ccc(CC2CCN(c3nc(N4CCOCC4)nc(N4CCOCC4)n3)CC2)cc1,7%
COc1ccccc1NC(=O)N1CCCC1C(=O)NCc1ccccc1F (stereo not drawn),-6%
Nc1ccc2oc(-c3cccc(Br)c3)nc2c1,?
N#Cc1c(N)nc2c(c1-c1ccccc1)CCCC2,?
CCN(CC)C(=O)CSCC(=O)Nc1ccccc1,?
Cc1nn(C)cc1CN(C)C(=O)c1nn2c(c1Cl)NC(c1cccs1)CC2C(F)(F)F (stereo not drawn),-3%
Cc1cc(=O)[nH]c2cc3oc4ccccc4c3cc12,7%[11.4 µM]
CCOC(=O)c1ccc(NC(=O)CCc2nc(-c3ccc(C)cc3)no2)cc1,-4%
C[C@H]1CC(C)(C)C[C@@](OCCN2CCCCC2)(c2ccccc2)C1,0%[11.4 µM]
O=C(c1ccc2c(c1)OCO2)N1CCN(c2ccccc2F)CC1,5%

Following part.
structure,HSD17B inhib
COC(=O)c1cccc(NC(=O)Cn2cnc3ccccc3c2=O)c1,0%
Nc1nonc1C(=Nc1ccccc1)NO,-3%
Cc1ccc(C2C(C#N)=C(N)Oc3n[nH]c(C)c32)cc1 (stereo not drawn),-1%
CCOc1cc(C(=S)N2CCN(C)CC2)ccc1OCC(=O)N1CCOCC1,-8%
COC(=O)c1cc(NC(=O)c2ccoc2C)cc(C(=O)OC)c1,-5%
CC(C(=O)Nc1ccc(S(=O)(=O)N2CCOCC2)cc1)N(c1ccccc1)S(C)(=O)=O (stereo not drawn),-25%
COCCn1nnnc1C(C(C)C)N1CCOCC1 (stereo not drawn),1%
COc1cc2c(cc1OC)C1C(=O)c3ccc4c(c3OC1CO2)C=CC(C)(C)O4 (stereo not drawn),2%
COc1cc2c(cc1OC)C(c1ccc3c(c1)OCO3)CC(=O)N2 (stereo not drawn),4%
Nn1cnnc1SCC(=O)Nc1ccc(C2CCCCC2)cc1,5%

Remaining list, next part:
structure,HSD17B inhib
CCOc1cc(C2C(C#N)=C(N)Oc3n[nH]c(-c4ccccc4)c32)ccc1O (stereo not drawn),-18%
C#CCN(C)Cc1ccccc1,1%[25.6 µM]
O=C(O)Cc1ccc2[nH]c3ccc(CC(=O)O)cc3c2c1,25µM*
Cc1ccccc1C(=O)N1CCCN(C(=O)c2ccccc2C)CC1,3%
CN(c1ccccc1C(=O)N1CCOCC1)S(C)(=O)=O,0%
CCOc1ccc(C(C)=O)cc1N1C(=O)C2C3C=CC(C3)C2C1=O (stereo not drawn),-11%
O=CN1CCN(C2CC(=O)N(c3ccc(Br)cc3)C2=O)CC1 (stereo not drawn),-6%
N=C(N)SCCSC(=N)N,13%[11.4 µM]
COC(=O)C1=C(N)Oc2cc(C)n(CC3CCCO3)c(=O)c2C1c1ccccc1OC (stereo not drawn),11%
Cc1nnc2n(C3CCCCC3)c(=O)c3c4c(sc3n12)CCC4,3%

Following part:
structure,HSD17B inhib
c1ccc(Cn2ccnc2-c2ccco2)cc1,-22%
CC(=O)Nc1cccc(NC(=O)Nc2ccc(C(C)=O)cc2)c1,-13%
O=[n+]1c2c(n([O-])c3cc(F)c(N4CCCC4)cc31)CCC2,-5%
O=S(=O)(NC1CCCCC1)c1ccc(Br)cc1,-13%
ClC(=Nc1cccc2ccccc12)N(c1ccccc1)c1ccccc1,-3%[11.4 µM]
COC1C=CC23c4cc5c(cc4CN(CC2O)C3C1)OCO5 (stereo not drawn),-4%
C=CCOC(=O)C(C(C)=O)C(NC(=O)OC)c1cccc(C(F)(F)F)c1 (stereo not drawn),4%[11.4 µM]
COCc1[nH]nc2c1C(c1ccccc1OC)C(C#N)=C(N)O2 (stereo not drawn),-2%
CCOC(=O)N1CCN(c2ncnc3c2oc2nc(C)c4c(c23)CC(C)(C)OC4)CC1,-18%
Cc1cc(C)nc(N2CCCC(C(=O)Nc3nc4ccc(S(C)(=O)=O)cc4s3)C2)n1 (stereo not drawn),?
